Screening data: PubChem, several laboratories
GALR2 ag = GALR2 receptor agonists, primary screen, cell-based. Galanin receptor type 2 (Homo sapiens), O43603. activation, %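 (tested at 5 µM)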. 0.48% of 140,000 active. GALR2-expressing cells, agonist activation read-out;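 active = above mean plus 3 SD of all compounds, about 5% in these data, not always enough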;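 also: 0% = vehicle buffer wells and 100% = reference agonist at full effect; tested in CHO reporter cells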
Target sequence (O43603 whole entry, looked up): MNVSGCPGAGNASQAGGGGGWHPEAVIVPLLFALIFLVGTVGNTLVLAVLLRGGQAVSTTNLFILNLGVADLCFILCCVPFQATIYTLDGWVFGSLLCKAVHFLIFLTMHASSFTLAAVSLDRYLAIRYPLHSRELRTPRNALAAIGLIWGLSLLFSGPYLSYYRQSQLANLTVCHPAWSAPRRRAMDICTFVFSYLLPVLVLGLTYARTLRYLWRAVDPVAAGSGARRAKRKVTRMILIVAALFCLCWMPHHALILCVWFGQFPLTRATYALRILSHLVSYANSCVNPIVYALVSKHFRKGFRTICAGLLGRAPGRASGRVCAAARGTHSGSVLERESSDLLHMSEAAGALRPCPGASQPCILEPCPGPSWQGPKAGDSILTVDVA
Insulin prom inh = inhibitors of insulin promoter-driven GFP, primary screen, imaging, TRM-6 cells (human fetal islet line), eGFP reporter, cell count; reporter expression induced with tamoxifen; inhibition, % at 2 µM; 0.9% of 130,000 active;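 active = inhibition above the mean plus 3 SD, with well images judged a real hit on visual review, cut at about 60% in these data, passing the limit was not always enough; inconclusive = inhibition over the cutoff but images rejected on review; inactive = inhibition not above the cutoff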
HSV augment = enhancers of HSV replication in host cells, fold increase, host cell viability; HSV replication augmentation in cells; maximum fold increase; 0.005% of 220,000 active;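 active = peak rise of 1.5-fold or more in the series; inconclusive = self-fluorescent or not available for retest; tested in PC3 cells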;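 also: first round at 10 µM; read as green reporter fluorescence; hits show the peak of a series up to 25 µM; 1 = signal of infected wells without compound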
RGS16-Gao HTS = modulators of RGS16 binding to Galphao, primary screen, biochemical, human proteins, multiplexed bead flow cytometry | Regulator of G-protein signaling 16 (Homo sapiens) + Guanine nucleotide-binding protein … | bead-based flow cytometry RGS16-Galphao binding, fluorescence; actives lie on both sides | binding response (% of control), % at 10 µM | 0.38% of 220,000 active | AID 1441, 2008;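 active = below 25% or above 175%, edge rows of some plates excepted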;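 also: Galphao activated by GDP with aluminum fluoride before binding; 100% = wells without compound and 0% = beads without RGS; some results beyond the cut were filed as inactive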
Target sequence (O15492 whole entry, looked up): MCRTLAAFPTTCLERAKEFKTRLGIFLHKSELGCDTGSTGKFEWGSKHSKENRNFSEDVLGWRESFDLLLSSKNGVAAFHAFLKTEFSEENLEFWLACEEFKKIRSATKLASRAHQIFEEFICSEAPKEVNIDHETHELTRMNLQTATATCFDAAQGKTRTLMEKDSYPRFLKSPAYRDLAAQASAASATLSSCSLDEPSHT
Target sequence (P09471 whole entry, looked up): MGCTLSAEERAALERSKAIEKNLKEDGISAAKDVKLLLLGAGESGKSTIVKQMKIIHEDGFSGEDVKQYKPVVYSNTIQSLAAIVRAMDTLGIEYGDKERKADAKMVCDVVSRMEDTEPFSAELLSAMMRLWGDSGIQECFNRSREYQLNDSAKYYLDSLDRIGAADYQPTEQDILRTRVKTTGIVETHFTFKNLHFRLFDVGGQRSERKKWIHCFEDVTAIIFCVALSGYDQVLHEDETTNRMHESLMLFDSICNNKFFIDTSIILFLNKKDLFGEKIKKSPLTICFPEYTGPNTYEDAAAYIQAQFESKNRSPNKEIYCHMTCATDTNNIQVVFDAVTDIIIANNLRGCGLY
PKD1 inh = inhibitors of human PKD1 kinase, biochemical, fluorescence polarization; Serine/threonine-protein kinase D1 (Homo sapiens), Q15139; PKD1 kinase fluorescence polarization assay; inhibition, %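 (about 10 µM by stock and volumes)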; 0.056% of 200,000 active; AID 797, 2007;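 active = inhibition of 50% or more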;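 also: controls were vehicle for no effect and a reference inhibitor for full effect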
Insulin prom inh cell count = recorded beside Insulin prom inh, whose call it bears; normalized cell count, %; measured here: cell count, toxicity; reference of the scale not given here;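 cells exposed to compound for 48 h; stained nuclei by imaging scaled within each plate; lower means fewer cells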
HSV augment primary fold = also measured in HSV augment; calls as there; fold increase; compound at 10 µM; measured here: primary screen fold increase 10 uM; tested in PC3 cells;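 GFP signal in the first replicate; 1 = infected wells without compound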
An asterisk follows results filed as active; i = inactive; u = inconclusive; x = not tested or not shown.

SMILES	GALR2 ag	Insulin prom inh	Insulin prom inh cell count	HSV augment	HSV augment primary fold	RGS16-Gao HTS	PKD1 inh
Cc1ccc(-n2c(O)c(C=NCc3ccccn3)c3ccccc3c2=O)cc1C	0.2	-24	70	i	0.85	100	-8
CC(=O)NCCn1c(SCc2ccccc2C)nc2ccccc2c1=O	0.6	17	117	i	0.84	105	2
CCn1c(SCC(=O)c2[nH]c(C)c(C(C)=O)c2C)nnc1-c1cccs1	-1.7	x	x	i	0.89	102	-4
CCOC(=O)N1CCN(C(=O)CSc2nnc(-c3ccccc3OC)o2)CC1	-0.8	-4	132	i	0.82	105	4
O=S(=O)(Nc1ccc2c(c1)nc1n2CCN(Cc2ccccc2)C1)c1ccccc1	-0.1	24	116	i	0.78	83	-10
COc1ccc(CC(=S)N2CCOCC2)cc1	0.1	20	106	i	0.96	43	-2
O=c1onc(-c2cccs2)n1Cc1ccccc1	-1.2	-31	112	i	1.1	102	-3
CC(=O)NC1(C(F)(F)F)C(=O)Nc2c1c(=O)[nH]c(=O)n2-c1ccccc1 (stereo not drawn)	x	x	x	i	0.84	100	x
CCc1ccc2nc(NC(=O)Cn3cnc4ccccc4c3=O)sc2c1	x	45	115	i	1	96	-5
O=C(Nc1ccccc1)O/N=C1/CCCc2occc21	x	x	x	i	1.1	100	x
Cc1ccccc1-n1c(SCC(=O)N2CCOCC2)nc(O)cc1=O	-1.4	0	67	i	1.1	96	-9
Cc1cc(C)nc(-n2nc(C)c(Sc3ccc(F)cc3)c2N)n1	3.7	-250	46	i	0.74	91	-7
Cc1cc(C(F)(F)F)nc(NCc2ccc(F)cc2)n1	-2.6	x	x	i	1.1	105	-4
CCn1nc(C(=O)O)c(=O)c2cc3c(cc21)OCO3	-0.5	-9	57	i	0.96	56	-1
Cc1ccc(NC(=O)CN(C)Cc2ccc(F)cc2)c([N+](=O)[O-])c1	-0.8	x	x	i	1.1	101	-14
Nc1cc(C(=O)N/N=C/c2cccc([N+](=O)[O-])c2)n[nH]c1=O	x	x	x	i	0.79	103	x
COc1ccccc1Nc1nc2nonc2[nH]c1=O	x	x	x	i	0.91	116	-5
N/C(=N\OC(=O)COc1ccc(Cl)cc1Br)c1cccnc1	x	14	107	i	0.95	101	3
CCCCOc1ccc(/C=C/C(=O)OCC(=O)NC(=O)NCC(C)C)cc1OCC	0.0	x	x	i	0.91	101	3
C/C(=N\N1CCN(c2ccc(Cl)cc2)CC1)c1cccs1	-1.3	-9	79	i	0.9	107	-9
COCCN1C2=C(COC(C)(C)C2)C(=S)NC1c1ccccc1 (stereo not drawn)	x	x	x	i	0.95	100	x
Cc1nc([N+](=O)[O-])cn1CC(=O)Nc1ccc2c(c1)OCO2	x	x	x	i	0.93	101	1
Cn1ccnc1C(O)c1ccccc1 (stereo not drawn)	x	-8	117	i	0.97	99	-1
CN(CC(=O)Nc1ccc(F)cc1)CC(=O)Nc1ccc(Cl)c(S(=O)(=O)N2CCOCC2)c1	x	x	x	i	0.93	109	x
O=c1oc2ccc(Br)cc2cc1-c1nc2ccccc2o1	-2.5	x	x	u	x	100	1
COc1cc(C2CC(=O)Oc3c(C(CCN4CCCC(C)C4)c4ccc(N(C)C)cc4)c(OC)cc(OC)c32)cc(OC)c1OC (stereo not drawn)	x	x	x	i	0.87	94	x
CCCN1CCN(c2ccc([N+](=O)[O-])cc2C#N)CC1	x	x	x	i	0.92	98	-3
O=C(/C=C/c1ccccc1)NCCSCc1ccccc1	-1.2	-42	79	x	x	102	8
COc1ccc(NC(=S)NCC2CCCO2)c(C)c1 (stereo not drawn)	-0.8	-38	76	i	0.91	111	-3
O=C1C(=O)N(CCN2CCOCC2)C(c2ccncc2)/C1=C(/O)c1ccc2c(c1)OCO2 (stereo not drawn)	-0.7	-4	44	i	0.98	112	-4

In another format: entries from further up
| SMILES | GALR2 ag | Insulin prom inh | Insulin prom inh cell count | HSV augment | HSV augment primary fold | RGS16-Gao HTS | PKD1 inh |
| --- | --- | --- | --- | --- | --- | --- | --- |
| Cn1ccnc1C(O)c1ccccc1 (stereo not drawn) | x | -8 | 117 | i | 0.97 | 99 | -1 |
| COCCN1C2=C(COC(C)(C)C2)C(=S)NC1c1ccccc1 (stereo not drawn) | x | x | x | i | 0.95 | 100 | x |
| Cc1nc([N+](=O)[O-])cn1CC(=O)Nc1ccc2c(c1)OCO2 | x | x | x | i | 0.93 | 101 | 1 |
| COc1ccccc1Nc1nc2nonc2[nH]c1=O | x | x | x | i | 0.91 | 116 | -5 |
| CCCCOc1ccc(/C=C/C(=O)OCC(=O)NC(=O)NCC(C)C)cc1OCC | 0.0 | x | x | i | 0.91 | 101 | 3 |

Carrying on.
SMILES	GALR2 ag	Insulin prom inh	Insulin prom inh cell count	HSV augment	HSV augment primary fold	RGS16-Gao HTS	PKD1 inh
Cn1c(/C=N/n2cnnc2)nc2ccccc21	1.9	-29	97	i	0.93	102	-8
CC1=C(CC/C(C)=N/NC(N)=S)C(C)(C)CCC1	-3.0	-176	83	i	1.1	96	-1
COC(=O)/C=C1/S/C(=N/N=C/c2ccc(N(C)C)cc2)NC1=O	-1.6	x	x	i	1	104	-2
COc1ccc(NC(=O)c2cc(-c3ccccc3)oc2C)cc1	0.1	3	161	i	1	105	-21
CCCCCn1c(=O)c(Cc2ccccc2)c(O)c2ccccc21	-1.4	63	31	i	0.66	104	-1
O=C1c2cc([N+](=O)[O-])ccc2-c2ncccc21	x	x	x	i	1.1	95	x
CCS(=O)(=O)c1cc([N+](=O)[O-])c(Sc2ccccc2N)s1	x	x	x	i	1.2	91	x
c1ccc2c(-c3nn4nnnc4c4ccccc34)cccc2c1	0.1	-10	141	x	x	101	2
CCOc1ccc(/C=C2/C(=N)N3OC(C)=CC3=NC2=O)cc1OC	x	-7	122	i	0.98	107	-5
O=C1OCCC1Sc1nnc(-c2ccc(Br)cc2)o1 (stereo not drawn)	-1.3	45	157	i	1	102	-5
CC(C)Oc1cccc(C(=O)Nc2ccc(NC(=O)c3ccco3)cc2)c1	-2.5	x	x	i	0.87	77	0
COCc1cc(C)nc(OCC(=O)N/N=C/c2ccc(-c3cc([N+](=O)[O-])ccc3C)o2)c1C#N	-3.3	8	112	i	0.86	104	-2
O=C(Nc1ccc(Cl)c(Cl)c1)c1ccc(Cn2cc(Cl)cn2)cc1	0.2	x	x	i	0.95	29	0
COC(=O)c1ccc2c(=O)n(-c3ccccc3)c(=S)[nH]c2c1	x	x	x	i	1.1	103	-3
CCC(C)n1c(=N)c(C#N)cc2c(=O)n3ccccc3nc21 (stereo not drawn)	2.7	-8	95	i	1	104	0
CC(C)C(=O)N1CCC(c2nc(-c3ccc(S(=O)(=O)N4CCCC4)cc3)no2)CC1	0.0	13	101	i	1.1	98	-1
O=C(NCCc1ccccc1)C1CCCN1S(=O)(=O)c1ccccc1 (stereo not drawn)	x	x	x	i	1	107	-2
CCN(CC)c1ccc(NC(=O)COc2ccc(N(C)S(=O)(=O)c3cccs3)cc2)cc1	x	x	x	i	0.97	107	-1
CC(=O)c1cc(-c2ccccc2)n(CC(=O)N2CCN(C3CCCC3)CC2)c1C	-1.3	21	135	i	1	203	-2
CC(C)=CCC(C)(C)CNC(=O)NC1CCCCC1	-2.8	-32	128	i	0.84	105	-2
N#Cc1ccccc1Sc1ccccc1C(=O)OCC(=O)N1CCN(C(=O)c2ccco2)CC1	-0.9	6	93	i	0.96	99	1
CC(C)[C@@H]1NC(=O)c2cc([N+](=O)[O-])cc(I)c2NCCCC[C@@H](C(=O)NC(CC(=O)O)C(N)=O)NC(=O)[C@H](CO)NC1=O (stereo partly drawn)	-0.9	-9	138	i	0.93	102	3
Cc1sc2ncnc(SCC(=O)NC(=O)c3cccn3C)c2c1C	x	x	x	i	0.93	100	-7
COc1ccc2[nH]cc(CCNS(=O)(=O)Cc3ccccc3)c2c1	x	x	x	i	0.94	94	-4
COc1cccc(C(=O)Nc2nc3ccc(S(C)(=O)=O)cc3s2)c1	x	-19	77	i	0.98	100	-5
CCN1CCN(Cc2c(O)ccc3c2O/C(=C\C=C\c2ccccc2OC)C3=O)CC1	0.0	-14	145	u	x	133	5
COc1ccc(N(CC(=O)NCc2cccs2)S(=O)(=O)c2c(C)nn(C)c2C)cc1	17*	x	x	i	1.1	105	5
CCOc1ccc(C(C)=O)cc1COc1ccc(-n2cnnn2)cc1	-1.7	x	x	i	1.1	90	-5
O=C(O)CCC(=O)N1CCc2cc(S(=O)(=O)NCc3cccs3)ccc21	-2.6	0	196	i	1.3	106	-7
COC(=O)c1ccc(COC(=O)CNS(=O)(=O)c2ccc(C)cc2)cc1	x	73*	80*	i	0.98	98	-2
COc1ccccc1N1CCN(C(c2cccs2)C(C)NC(=O)c2cccs2)CC1 (stereo not drawn)	-1.1	24	86	i	0.97	99	-8
Cc1ccc(C2CC(c3ccc(F)cc3)Nc3nc(N)nn32)cc1 (stereo not drawn)	0.1	x	x	i	0.95	102	5
Cc1onc(-c2ccccc2)c1C(=O)Nc1ccc(-c2nnc3n2CCCCC3)cc1	0.1	-71	148	i	0.89	106	-2
CSc1n[nH]c(NCc2ccc(C)cc2)n1	-2.3	63	94	i	0.95	107	-17
CCC1(C)NC(=O)N(/N=C/c2cc(OC)c(O)c(OC)c2)C1=O (stereo not drawn)	x	20	141	i	0.88	99	-1
COc1ccc(C)cc1NC(=O)C(Sc1nnc(Nc2ccccc2F)s1)c1ccccc1 (stereo not drawn)	-0.7	-6	138	i	0.88	106	5
Cc1cc(C)cc(NC(=S)NCCc2ccc(S(N)(=O)=O)cc2)c1	-1.7	x	x	i	1.1	100	2
O=C(NC(c1ccccc1)c1ccccc1)c1ccc(Br)o1	-0.5	x	x	i	0.92	78	0
COCCN1CCN(c2cc(-c3ccccc3)nc3cc(-c4cccc(F)c4)nn23)CC1	0.9	7	135	i	0.7	102	-16
CCCC(=O)NC(=S)Nc1c(C)cc(Br)cc1C	0.8	12	39	i	0.87	x	-2
CC(=O)Nc1cccc(NC(=O)CSc2nnc(Cc3cccn3C)n2-c2ccc(F)cc2)c1	0.5	-100	160	i	1	102	0
CC1(C)C(C=C(Cl)Cl)C1C(=O)N1CCN(Cc2ccccc2)CC1 (stereo not drawn)	x	x	x	i	0.99	101	-4
C/C(=N/NC(=O)c1cccc(N2CCCC2=O)c1)c1ccncc1	x	x	x	i	1.1	106	1
CC(C)C(=O)Nc1c(C(=O)c2ccc(F)cc2)oc2ccccc12	-0.3	x	x	i	1	81	-10
O=C(O)[C@H](Cc1ccccc1)NC(=O)N1CCN(c2ccccc2)CC1	x	x	x	i	0.96	106	x
CC(=O)Nc1ccc(C(=O)CSc2nnnn2C2CCCC2)cc1	x	x	x	i	1	103	-1
O=C(Nn1c(-c2ccncc2)nc2ccccc2c1=O)c1ccccc1Br	x	x	x	i	1	102	1
Cn1c(Cn2c(=O)sc3ccccc32)nnc1SCC(=O)N1CCOCC1	-1.3	x	x	i	1.1	100	-3
CN1C(=O)N2CN(C3CCCCC3)CN3C(=O)N(C)C1C23 (stereo not drawn)	0.0	5	101	i	0.94	94	1
C=CCn1c(SCCC(=O)O)nc2c1c(=O)n(C)c(=O)n2C	-1.6	29	94	i	0.91	93	-8
CCOC(=O)c1c(-c2cccs2)csc1NC(=O)CN1CCOCC1	0.7	-33	122	i	0.94	99	-8
Nc1ncnc2c1C1(CCCCC1)Cc1ccccc1-2	-1.1	7	85	i	0.97	102	-7
O=C(Nc1cccnc1)c1ccc2snnc2c1	-0.7	36	94	i	0.86	95	-9
O=C(CCN1CCC(c2ccc(Cl)s2)=N1)c1ccc(Cl)s1	x	x	x	i	1.3	102	x
COc1ccc(NC(=S)N2CCN(C/C=C/c3ccccc3)CC2)c(OC)c1	x	0	127	i	0.95	96	-1
CCc1cc(-c2n[nH]c(=S)n2-c2ccccc2C)cs1	-2.0	-8	89	x	x	99	-1
CC(=O)N1CCc2c(sc(NC(=O)CN3C(=O)c4ccccc4C3=O)c2C(N)=O)C1	x	x	x	x	x	150	1
COc1ccc(Cc2nnc(NC(=O)C(C)(C)C)s2)cc1	x	x	x	i	0.86	117	-4
